PINK1 expr mod: modulators of PINK1 expression; Potency, µM (titrated, usually from 76.6 µM), without a hit: at the highest dose activation (PINK1 increase), most hits filed as activators; PINK1 immunofluorescence, high-content cytometry, 24 h; 410,000 tested, 0.2% active; active = well fitted activation curve with a large enough effect; inconclusive = small, poorly fitted or top-dose-only effect; inactive = flat fitted curve, though single readings scatter; cell line not stated here;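 further: potency means the concentration at half of the fitted maximal effect; % of control where 0% means no effect; nearly all actives have a fitted effect of over 65% in size; a mitochondrial uncoupler was the plate control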
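Fluorescence from anti-PINK1 antibody, together with nuclear and cell stains, was scanned on a laser-scanning cytometer. Before staining, stable-line cells were incubated 24 hours with compounds at 5 concentrations; primary antibody 12 h at 10 degrees C.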
D2 potentiator: positive allosteric modulators of human D2 dopamine receptor. P14416. DiscoveRx D2 beta-arrestin cells, luminescence, 90 min; 100% = 57 uM dopamine signal. potentiation, % (test concentration not listed). 360,000 tested, 0.23% active. AID 624464; active = potentiation of 50% or more; inconclusive = 30% to 50%; inactive = 30% or less;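 further: compound concentration not given in the record; tested on top of an EC20 dose of dopamine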
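PathHunter D2 cells, attached overnight at 37 deg C, received compound in DMSO plus dopamine at EC20 (50 nM final) for 90 min at 37 deg C. Beta-arrestin recruitment was read as luminescence after 1 h with detection reagent at ambient temperature.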
Six1-Eya2 inh: inhibitors of human Six1/Eya2 interaction; Q15475+O00167; AlphaScreen GST-Six1/His-Eya2 binding, biochemical; hits give low values; control for the full effect not named in the record; activity change, % (concentration not given with the values); 360,000 tested, 0.56% active; in the data active = activity change below about -65%; inconclusive = about -30% to -65%; inactive = above about -30%; further: on the % scale 0 is the no-effect control and ±100 the full control effect
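AlphaScreen with GST-Six1 and His-Eya2 (5X mix: 250 nM and 500 nM), glutathione donor and nickel acceptor beads; buffer 50 mM Tris pH 8.0, 300 mM NaCl, 1 mM TCEP; 1 h at 37 C in the dark.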
Sfp PPTase inh: blocks B. subtilis Sfp PPTase activity; Potency, µM, inactives show max response, negative = inhibition, most hits filed as inhibitors; 310,000 tested, 3.5% active; AID 1490; Biochemical Sfp PPTase activity, qHTS; Q9F4F7; active means well fitted inhibition curve with a large enough effect; inconclusive means small, poorly fitted or top-dose-only effect, or another doubt; inactive means no such curve, though single readings can be large or run the other way;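 further: the enzyme is Sfp with the accession as filed and its product quenches rhodamine fluorescence; potency means the concentration at half of the fitted maximal effect; 0% = enzyme reaction without inhibitor and -100% = no enzyme wells; top concentration of the series not given in the record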
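After 15 min at room temperature with compound, 15 nM Sfp received 5 uM rhodamine-CoA plus 12.5 uM BHQ-2-ybbR (50 mM Hepes pH 7.6, 10 mM MgCl2). Rate came from the fluorescence difference over 30 min, ex 525/em 598 nm.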
D2 ag: activates the human D2 dopamine receptor; DiscoveRx PathHunter D2 beta-arrestin, luminescence, 90 min; 100% = 57 uM dopamine signal; activation, % (test concentration not listed); 360,000 tested, 0.084% active; AID 624465; in the data active = activation above about 40%; inconclusive = about 15% to 40%; inactive = below about 15%; further: compound concentration not given in the record; the text of the record calls up to 30% inactive
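Agonist mode: compounds alone added to overnight-plated D2 PathHunter cells for 90 min at 37 C, with 57 uM final dopamine (EC100) defining full response. Beta-arrestin recruitment detected by chemiluminescent reagent, read after 1 h at ambient temperature.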
TRPV1 potentiator: human TRPV1 potentiation. AID 540277. TRPV1-expressing cells, Fluo-8 calcium influx, capsaicin EC20 potentiation; host cell line not named in the record; control for the full effect not named in the record. 320,000 tested, 0.02% active. Q8NER1. potentiation, % at 8.33 µM; active means potentiation above 80%; inconclusive means 30% to 80%; inactive means below 30%; further: 0% is about no effect
Target sequence (Q8NER1 whole entry, looked up): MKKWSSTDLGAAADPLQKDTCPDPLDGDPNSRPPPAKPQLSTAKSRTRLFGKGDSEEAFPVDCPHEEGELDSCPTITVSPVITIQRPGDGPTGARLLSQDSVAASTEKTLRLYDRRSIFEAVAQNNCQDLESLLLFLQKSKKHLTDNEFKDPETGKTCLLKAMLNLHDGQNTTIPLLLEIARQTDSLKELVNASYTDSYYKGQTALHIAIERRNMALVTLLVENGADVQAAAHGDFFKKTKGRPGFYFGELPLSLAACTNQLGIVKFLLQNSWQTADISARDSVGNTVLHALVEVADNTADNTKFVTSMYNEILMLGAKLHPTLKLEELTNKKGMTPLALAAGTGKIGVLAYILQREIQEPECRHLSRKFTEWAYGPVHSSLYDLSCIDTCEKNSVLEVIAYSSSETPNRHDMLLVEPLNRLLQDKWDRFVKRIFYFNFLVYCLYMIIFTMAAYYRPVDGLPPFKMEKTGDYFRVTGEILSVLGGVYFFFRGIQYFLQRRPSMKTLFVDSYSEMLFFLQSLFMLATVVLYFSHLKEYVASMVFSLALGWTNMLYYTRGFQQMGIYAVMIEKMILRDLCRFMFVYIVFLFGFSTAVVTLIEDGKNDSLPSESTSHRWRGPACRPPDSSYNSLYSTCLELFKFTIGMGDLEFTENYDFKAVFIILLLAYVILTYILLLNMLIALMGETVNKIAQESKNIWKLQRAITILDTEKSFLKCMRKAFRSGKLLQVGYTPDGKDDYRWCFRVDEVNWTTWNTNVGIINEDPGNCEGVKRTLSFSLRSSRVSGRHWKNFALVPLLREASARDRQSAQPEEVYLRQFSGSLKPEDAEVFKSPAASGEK
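Fluo-8 calcium influx in TRPV1-expressing cells, kinetic read (ex 480/em 520 nm). Compound added and read 3 min for agonist activity, followed by capsaicin at EC20 final and 2 min further read for enhancement.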
CtBP-E1A inh: CtBP/E1A binding inhibition; AlphaScreen GST-E1A/His-CtBP binding, 1536-well; hits give low values; control for the full effect not named in the record; activity change, % (no concentration beside the values); 340,000 tested, 0.49% active; AID 651724; in the data active means activity change below about -65%; inconclusive means about -30% to -65%; inactive means above about -30%; further: on the % scale 0 is the no-effect control and ±100 the full control effect; compound concentration not given in the record
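Homogeneous bead-based format: GST-tagged E1A captured on glutathione donor beads, His-tagged CtBP on nickel acceptor beads; compounds precede bead addition by 2 h at 37 °C.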
Active calls of the source: *; u = inconclusive; x = no result given; & = joins results of further samples; [ ] = another dose, or the depositor's remark.

#1 N#CC1=C(N)OC2=C(C(=O)CCC2)C12CCC1(CC2)OCCO1
#2 O=C(COc1ccc(C(=O)c2ccc(F)cc2)cc1)Nc1cccc(S(=O)(=O)N2CCOCC2)c1
#3 CC(C)Oc1ccc(C2C(C#N)=C(N)Oc3c2oc(CO)cc3=O)cc1 (stereo not given)
#4 CC(=O)Nc1cccc(/C(C)=N/NC(=O)c2cc(-c3ccncc3)nc3ccccc23)c1
#5 COc1ccc(CC(=O)OCC(=O)NNC(=O)c2ccccc2)cc1
#6 CC1CC(C)CN(CCCNC(=O)Cc2c(C(=O)O)n(C)c3ccccc23)C1 (stereo not given)

assay / entry	1	2	3	4	5	6
PINK1 expr mod	-2.2%	-4.7%	0.8%	-1.1%	-0.7%	-1.1%[38.3 µM]
D2 potentiator	-9	-8	4	2	-3	1
Six1-Eya2 inh	0	-10	1	0	4	2
Sfp PPTase inh	2%	x	-1%	13%	x	9%
D2 ag	-0.7	-0.4	-1.9	-2.0	-0.8	-2.2
TRPV1 potentiator	-5	x	3	10	x	0
CtBP-E1A inh	-8	-4	3	-12	-19	6

Overlap with the part before: two compounds, followed by the next part.
#5 COc1ccc(CC(=O)OCC(=O)NNC(=O)c2ccccc2)cc1
#6 CC1CC(C)CN(CCCNC(=O)Cc2c(C(=O)O)n(C)c3ccccc23)C1 (stereo not given)
#7 C/C(=N/NC(=O)CNc1ccc(Cl)cc1C)c1ccc(C)cc1
#8 CCOc1ccc(S(=O)(=O)N2CCN(C(=O)c3cc4ccccc4o3)CC2)cc1
#9 O=C(COn1nnc2ccc(S(=O)(=O)N3CCOCC3)cc21)NCc1cccc(Cl)c1
#10 C[C@@H]1CN([C@@H](C)CO)C(=O)CCCn2nncc2CO[C@H]1CN(C)C(=O)Cc1ccccc1
#11 CNC(=O)/C(=C\c1ccc2c(c1)OCO2)NC(=O)c1ccc(Br)cc1
#12 c1ccc2[nH]c(-c3cscn3)nc2c1

assay / entry	5	6	7	8	9	10	11	12
PINK1 expr mod	-0.7%	-1.1%[38.3 µM]	12%	-0.7%	2.6%	0.4%	0.5%	2.1%
D2 potentiator	-3	1	-5	-5	11	-2	-14	1
Six1-Eya2 inh	4	2	-6	-5	2	-1	12	3
Sfp PPTase inh	x	9%	9%	x	x	x	12%	6%&-8%&1%&10%
D2 ag	-0.8	-2.2	1.2	-1.2	2.2	-11	-0.9	-4.1
TRPV1 potentiator	x	0	-3	x	x	x	-4	3
CtBP-E1A inh	-19	6	6	-4	0	0	5	-2

Some values from the entries so far.
Six1-Eya2 inh result of c1ccc2[nH]c(-c3cscn3)nc2c1 : 3
Six1-Eya2 inh result of C[C@@H]1CN([C@@H](C)CO)C(=O)CCCn2nncc2CO[C@H]1CN(C)C(=O)Cc1ccccc1 : -1
D2 potentiator result of CCOc1ccc(S(=O)(=O)N2CCN(C(=O)c3cc4ccccc4o3)CC2)cc1 : -5

Following part.
#13 CCOc1ccc2[nH]c(=O)c(CN(Cc3nnnn3Cc3ccccc3)CC3CCCO3)cc2c1 (stereo not given)
#14 CCc1nc2ccc(C(=O)N(CC)CCN(C)C)cn2c1N(C)Cc1nccs1
#15 OCCNC(=S)c1ccccc1
#16 COC(=O)c1sccc1NC(=O)CSc1ccccc1NS(=O)(=O)c1ccc(Cl)cc1
#17 O=C(O)CCCNS(=O)(=O)c1cccs1
#18 CC12CNCC(C)(CN(C3(O)C(=O)Nc4ccc(Br)cc43)C1)C2=O (stereo not given)

assay / entry	13	14	15	16	17	18
PINK1 expr mod	1.2%[38.3 µM]	0.8%	1.9%	-2.2%	1.7%	5.8%
D2 potentiator	1	-6	2	-16	-9	-29
Six1-Eya2 inh	4	3	-3	-8	7	1
Sfp PPTase inh	-7%	x	14%	14%	27%	11%
D2 ag	1.9	-1.8	1.9	-2.9	-1.5	-9.5
TRPV1 potentiator	-16	x	-39	x	-1	0
CtBP-E1A inh	47	2	x	-1	3	x

#19 C=CCn1c2ccccc2c2nnc(SCC(=O)Nc3c(C)n(C)n(-c4ccccc4)c3=O)nc21
#20 CSc1ccc(C2C(C(=O)c3ccco3)=C(O)C(=O)N2c2nnc(SC)s2)cc1 (stereo not given)
#21 CCOP(=O)(c1ccc(N(C)C)cc1)C(O)c1ccccc1OC (stereo not given)
#22 O=C(Nc1cccc([N+](=O)[O-])c1)c1[nH]ncc1Cl
#23 COc1ccc(CNC(=O)CCn2c(=O)oc3ccccc32)cc1
#24 Cc1ccc(NC(=O)CC2SC(=Nc3ccc(O)cc3)NC2=O)cc1 (stereo not given)

assay / entry	19	20	21	22	23	24
PINK1 expr mod	-0.1%	0.6%	21%[38.3 µM]	0.5%	3.2%	-1.7%
D2 potentiator	-3	-6	1	-6	-15	-10
Six1-Eya2 inh	-12	-5	-2	7	0	-2
Sfp PPTase inh	-8%	u	15%	-16%	14%	19%
D2 ag	-5.4	-1.9	-2.1	-1.8	-1.3	-1.6
TRPV1 potentiator	-6	u	-18	u	-5	4
CtBP-E1A inh	-2	1	0	0	3	-2

#25 COc1ccccc1NS(=O)(=O)c1cccc(C(=O)NCC(c2ccco2)N2CCCC2)c1 (stereo not given)
#26 O=C(NCc1nnc2c(C(F)(F)F)cc(Cl)cn12)c1ccco1
#27 COc1cc(C(=O)NC2CCN(Cc3ccccc3)CC2)cc(Cl)c1OC(C)C
#28 CCN(CC)CCNS(=O)(=O)c1ccc(C(=O)NN)cc1
#29 CCN(C(=O)CCc1nc(-c2ccccc2F)no1)c1cc(OC)ccc1OC
#30 CCN1CCc2c(OCC(=O)Nc3ccccc3)cccc2C1=O

assay / entry	25	26	27	28	29	30
PINK1 expr mod	0.0%	1.3%	4.7%	0.3%	0.4%	-1.4%
D2 potentiator	-23	-11	-11	-2	-13	-11
Six1-Eya2 inh	6	7	-2	-3	-4	-7
Sfp PPTase inh	x	26%	12%	6%	13%	-4%
D2 ag	0.9	-0.5	-1.5	-2.2	1.9	-3.8
TRPV1 potentiator	3	2	2	-3	-6	7
CtBP-E1A inh	-3	-10	2	5	-1	1

#31 Cn1cc(/C=C2\SC(=O)NC2=S)c2ccccc21
#32 CCOC(=O)CNC(=O)CSc1nc(-c2ccccc2)ns1
#33 CC(C)NC(=O)CCNS(=O)(=O)c1ccc(Br)cc1
#34 Cc1ccc(NC(=O)COC(=O)CCCC2=NS(=O)(=O)c3ccccc3N2)cc1C
#35 COCC(C)NC(=S)Nc1ccccc1[N+](=O)[O-] (stereo not given)
#36 CCOC(=O)N1CCN(c2ccc(C(=O)CC)cc2F)CC1

assay / entry	31	32	33	34	35	36
PINK1 expr mod	0.1%	0.1%	-2.2%[38.3 µM]	-0.3%	-0.7%	0.4%
D2 potentiator	-31	6	13	-33	7	17
Six1-Eya2 inh	-26	17	29	7	30	10
Sfp PPTase inh	32µM*	18µM*	17%	19%	-5%	4%
D2 ag	-7.0	-6.0	-1.2	-6.0	-1.6	1.2
TRPV1 potentiator	-4	0	-2	12	-6	-15
CtBP-E1A inh	2	22	43	-3	-12	11

#37 CNC(=O)CSCc1c(F)cccc1Cl
#38 CCOC(=O)N1CCN(C(=O)Nc2ccc3nc(C)sc3c2)CC1
#39 COc1cccc(-c2cnc3c(NC=O)cc(-c4ccc(O)c(OC)c4)cn23)c1
#40 Cc1ccc(S(=O)(=O)Nc2c(O)c3ccccc3oc2=O)cc1C
#41 CCOc1ccccc1C(=O)N[C@H](C(=O)Nc1cc(S(=O)(=O)N(C)C)ccc1OC)C(C)C
#42 COc1cccc(NC(=O)CN(C)C(=O)CCNC(=O)c2ccc(Br)cc2)c1

assay / entry	37	38	39	40	41	42
PINK1 expr mod	20%[38.3 µM]	0.0%	-0.9%	0.3%	2.6%	1.0%
D2 potentiator	-9	-6	-3	2	0	-23
Six1-Eya2 inh	7	-12	u	4	0	-2
Sfp PPTase inh	16%	5%	x	10%	11%	x
D2 ag	-2.1	-0.6	6.5	1.5	1.6	-1.5
TRPV1 potentiator	2	4	x	u	-7	4
CtBP-E1A inh	8	-1	-71*	-2	4	1

Entries above that bear a hit mark in Sfp PPTase inh.
nr | smiles | PINK1 expr mod | D2 potentiator | Six1-Eya2 inh | Sfp PPTase inh | D2 ag | CtBP-E1A inh
31 | Cn1cc(/C=C2\SC(=O)NC2=S)c2ccccc21 | 0.1% | -31 | -26 | 32µM* | -7.0 | 2
32 | CCOC(=O)CNC(=O)CSc1nc(-c2ccccc2)ns1 | 0.1% | 6 | 17 | 18µM* | -6.0 | 22

Additional compounds
#43 Cc1csc(NC(=O)CCCC(=O)O)c1-c1nc2ccccc2s1
#44 Cc1ccc(S(=O)(=O)Nc2ccccc2C(=O)N2CCCCCC2)cc1
#45 Cc1cccc(OCc2nnc(SCC(=O)N3CCCC3)o2)c1
#46 CCc1c(O)nc(SCC(=O)Nc2nc3ccccc3s2)n(C2CCCCC2)c1=O
#47 COc1ccc(NC(=O)COC(=O)c2ccccc2SCC(=O)N2CCCC2)cc1
#48 CCN1CCN(Cc2nnc(-c3ccc(C)cc3)o2)CC1

assay / entry	43	44	45	46	47	48
PINK1 expr mod	-0.6%	-1.6%	1.9%	-0.8%	0.7%	-1.7%
D2 potentiator	-4	-8	-3	4	-2	-10
Six1-Eya2 inh	-3	-9	-5	8	-5	-1
Sfp PPTase inh	5%	6%	17%	-7%	x	10%
D2 ag	0.4	-3.5	10.0	-1.8	-4.2	-4.2
TRPV1 potentiator	15	12	-2	9	9	-5
CtBP-E1A inh	1	9	0	x	6	-3

#49 N#CC1(NC(=O)COc2cccnc2[N+](=O)[O-])CCCCC1
#50 COC(=O)[C@H]1[C@H]2C[C@@H]3c4[nH]c5cc(OC)ccc5c4CCN3C[C@H]2C[C@@H](OC(=O)c2cc(OC)c(OC)c(OC)c2)[C@@H]1OC
#51 CC(C)CCN(Cc1ccco1)S(=O)(=O)c1ccc(-c2ccc(=O)[nH]n2)s1
#52 O=C(NC(=O)c1ccccc1O)c1ccc2c(c1)CCO2

assay / entry	49	50	51	52
PINK1 expr mod	-1.0%	5.8%	8.2%	-0.7%
D2 potentiator	-3	21	-6	-12
Six1-Eya2 inh	9	u	-7	3
Sfp PPTase inh	x	12%	-13%	18%
D2 ag	0.3	1.7	3.1	-8.4
TRPV1 potentiator	4	-31	-6	5
CtBP-E1A inh	-3	-28	-5	4

Screen by screen, quoted from above.
Nos. 49–52 in Sfp PPTase inh read x, 12%, -13%, 18%

Assay outcomes as filed in PubChem.
